PABP polyA inh = PABP poly(A) RNA binding inhibitors, primary screen, biochemical, fluorescence polarization, uHTS | Polyadenylate-binding protein 1 (Homo sapiens), P11940 | inhibition, % at 35 µM | 290,000 compounds, 1% hits | AID 2014, 2009;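 active = 50% or more with normal probe brightness, or confirmed in later tests; about a fifth of its hits are not listed in these tables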;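 note: calls also rest on retests at 20 µM and on dose response follow-up; controls were probe without protein and protein plus probe with vehicle; some compounds called inactive have numbers as strong as hits; many hits fall short of the cut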
Target sequence (P11940 whole entry, looked up): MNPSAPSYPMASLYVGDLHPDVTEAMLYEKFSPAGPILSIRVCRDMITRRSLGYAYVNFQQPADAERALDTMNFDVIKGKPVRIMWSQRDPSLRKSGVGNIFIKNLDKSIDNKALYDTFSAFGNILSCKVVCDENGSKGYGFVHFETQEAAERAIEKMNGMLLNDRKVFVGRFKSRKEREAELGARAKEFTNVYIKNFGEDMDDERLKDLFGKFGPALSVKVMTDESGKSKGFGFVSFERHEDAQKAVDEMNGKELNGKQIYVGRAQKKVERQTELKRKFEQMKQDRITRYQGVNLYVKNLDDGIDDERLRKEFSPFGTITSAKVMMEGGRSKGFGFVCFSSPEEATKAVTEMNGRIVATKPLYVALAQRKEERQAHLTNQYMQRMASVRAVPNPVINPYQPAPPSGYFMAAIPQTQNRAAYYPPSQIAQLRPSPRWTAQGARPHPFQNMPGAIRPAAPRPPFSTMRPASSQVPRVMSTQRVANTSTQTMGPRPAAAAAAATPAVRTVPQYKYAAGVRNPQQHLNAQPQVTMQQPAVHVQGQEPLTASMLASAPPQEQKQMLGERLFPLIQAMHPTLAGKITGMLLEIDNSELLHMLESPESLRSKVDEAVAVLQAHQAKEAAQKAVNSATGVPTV
eIF4H FP inh = human eIF4H binding inhibitors, primary screen, translation initiation inhibitor project, biochemical, uHTS, fluorescence polarization. Eukaryotic translation initiation factor 4H (Homo sapiens), Q15056. eIF4H fluorescence polarization binding assay. inhibition, % at 35 µM. 290,000 compounds, 0.94% hits. AID 2012, 2009;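 active = 50% or more with normal probe brightness, or confirmed in later tests; about a fifth of its hits are not listed in these tables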;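 note: calls also rest on retests at 20 µM and on dose response follow-up; 0% = protein and probe with vehicle and 100% = probe without protein; strong numbers were not always called active; many hits fall short of the cut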
CSC inhib = cancer stem cell viability inhibitors, primary screen, luminescence; cancer stem cell-like cells viability; inhibition, % at 7.5 µM; 300,000 compounds, 1.1% hits; AID 2717, 2010;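 active = mean at 75% or more and at least half the replicates too; tested in HMLE shEcad cells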;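 note: 0% = median of negative and 100% = median of positive control wells; the first replicate is given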
Yeast UUG start = modulators of yeast start codon fidelity, primary screen, whole organism, S. cerevisiae, single point, plate reader | S. cerevisiae UUG-firefly luciferase reporter, luminescence/redox ratio | activity score, % at 18.7 µM | 350,000 compounds, 0.13% hits | AID 602363, 2012;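 active = replicate mean at a twofold rise or more, about +100% in these data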;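 note: firefly luciferase made from a UUG start codon reports start codon fidelity; reporter light over untreated wells divided by growth signal over untreated wells; some hits fall short of that in this replicate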
Rce1 inhib = yeast Rce1p protease inhibitors, primary screen, biochemical, fluorescence, cell-free homogeneous | calls only | 290,000 compounds, 0.27% hits | yeast membranes, quenched prenylated peptide cleavage fluorescence | CAAX prenyl protease 2 (Saccharomyces cerevisiae (strain ATCC 204508 / S288c)), Q03530;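 active = fall in fluorescence gain of 50% or more versus controls, with final raw signal at or below 3038400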;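 note: plate controls were neutral control wells for no effect and wells lacking membranes for full effect; tested at 10 µM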
Target sequence (Q03530 whole entry, looked up): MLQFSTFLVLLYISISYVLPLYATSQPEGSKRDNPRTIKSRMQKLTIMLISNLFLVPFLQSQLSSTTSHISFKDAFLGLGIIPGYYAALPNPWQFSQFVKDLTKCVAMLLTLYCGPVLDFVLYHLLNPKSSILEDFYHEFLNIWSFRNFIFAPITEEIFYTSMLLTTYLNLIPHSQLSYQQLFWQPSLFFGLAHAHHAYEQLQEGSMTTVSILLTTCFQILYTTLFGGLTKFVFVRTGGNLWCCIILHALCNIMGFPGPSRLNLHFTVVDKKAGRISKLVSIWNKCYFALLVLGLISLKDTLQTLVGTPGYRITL
Env fusion inh = inhibitors of HIV-1 Env-driven cell-cell fusion, primary screen, HeLa-JRFL effector, CEM21 target cells, luciferase. inhibition, % at 12.3 µM. 360,000 compounds, 1.1% hits;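 active = mean replicate inhibition score of at least 50 and every replicate individually at or above 50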;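 note: 0% = plate neutral controls and 100% = maraviroc near 300 nM; one replicate is shown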
MT1-MMP act inh = blockers of MT1-MMP proenzyme processing, primary screen, HT1080 RFP-PRO-GFP cells, GFP/RFP fluorescence | GFP/RFP ratio change, % at 20 µM | Matrix metalloproteinase-14 (Homo sapiens), P50281 | GFP/RFP ratio fluorescence, overnight; percent of plate control window, DMSO zero | AID 651647, 2012 | 360,000 compounds, 0.061% hits;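 active = GFP/RFP ratio change of at least 30% with cell ATP level not reduced by more than half and red fluorescence within 50% of control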; note: strong numbers were not always called active
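Assay system: HT1080 RFP-PRO-GFP cells. Benchmarks: DMSO vehicle wells and RFP-L50D-GFP reporter cell wells. Times: overnight cell settling, then overnight compound exposure, 37 °C, 5% CO2. Compound: 20 µM single dose, 1% DMSO. Read-out basis: GFP/RFP fluorescence ratio.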
eIF4H FP inh retest = second read-out of eIF4H FP inh, no call of its own (marks repeat the call); inhibition, %; compound at 20 µM; confirmation average;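 mean of two retest wells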
PABP polyA inh retest = further read-out of PABP polyA inh, marked with its call; inhibition, %; compound at 20 µM; confirmation repeats;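 mean of two retest wells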
MT1-MMP act inh RFP = second read-out of MT1-MMP act inh, no call of its own (marks repeat the call); RFP signal change, %; measured here: RFP expression control read;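 0 = vehicle wells; hits needed this value within 50% of zero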
The depositor's hits bear a star; i = inactive; / = not tested or not shown. Rows were taken by chance; any-hit rate near 2.9%.

SMILES	PABP polyA inh	eIF4H FP inh	CSC inhib	Yeast UUG start	Rce1 inhib	Env fusion inh	MT1-MMP act inh	MT1-MMP act inh RFP	others
Cc1n[nH]c(=O)nc1N/N=C/c1ccc(O)c([N+](=O)[O-])c1	-4	-4	4	-13	i	4	10	8
CC1CC(C)CN(C(=O)COC(=O)c2cc(S(=O)(=O)N3CCOCC3)ccc2F)C1 (stereo unspecified)	/	/	-7	21	i	-18	0	3
Fc1ccc(-c2csc(N3CCSCC3)n2)cc1	-5	-4	-12	-26	i	-30	1	1
Cc1ccccc1C(=O)N1CCC(C(=O)N2CCCc3ccccc32)CC1	/	/	-20	-4	/	-3	1	2
COc1ccc(/C=C2/SC(=S)NC2=O)cc1OCc1ccccc1	13	8	67	-21	i	17	-2	-7
CN1CCN(S(=O)(=O)c2ccc(NC(=O)c3cccc(F)c3)cc2)CC1	-2	-9	-19	-25	i	-161	4	3
Cc1c(NC(=S)Nc2ccccc2C(F)(F)F)cccc1[N+](=O)[O-]	38	-2	-1	/	i	-21	-2	7
O=C(NCC1CCCO1)c1cnc(Cl)c(Cl)c1 (stereo unspecified)	-1	2	-7	-24	i	-7	-3	0
CC(NS(=O)(=O)c1ccc([N+](=O)[O-])cc1)C(c1cccs1)N1CCOCC1 (stereo unspecified)	47	-1	-3	-4	i	20	-2	2
COc1ccc(NC(=O)c2cccc(S(=O)(=O)N3CCOCC3)c2)cn1	70*	73*	4	-13	i	/	-5	1
O=C(/C=C/c1ccc(O)c(O)c1)c1ccccc1O	32	7	44	-20	i	-132	-8	-14
COc1ccc(S(=O)(=O)n2ccc(C(C)Oc3ccc(-c4ccccc4)c(F)c3)n2)cc1 (stereo unspecified)	-1	-5	36	-15	i	18	2	-12
Cc1c(C(=O)NCc2ccc3c(c2)OCCO3)sc(=O)n1Cc1ccccc1C(F)(F)F	/	/	/	-8	/	18	3	-4
CCCN1CCN(S(=O)(=O)c2c(C)[nH]c(C)c2C(=O)N2CCCCC2)CC1	-5	-8	-11	1	i	5	2	7
O=C(c1ccc2c(c1)OCCO2)C1CCN(C(=O)c2ccc(F)cc2)CC1	-7	-8	-1	0	/	-2	3	-6
O=C(NCCSCc1ccco1)Nc1cc(Cl)cc(Cl)c1	2	-5	4	-20	i	18	-1	0
CCC(C)(C)NC(=O)c1ccc2c(c1)OCCO2	10	-22	/	/	i	-8	3	4
CCN(CC)S(=O)(=O)c1ccc(NC(=O)[C@@H](NC(=O)c2cc(OC)cc(OC)c2)C(C)C)cc1	2	14	-3	/	i	7	-2	-19
O=c1/c(=C/c2ccc(O)c([N+](=O)[O-])c2)sc2nc3ccccc3n12	-9	-8	/	/	/	1	2	-11
Fc1ccc(-c2ccc(/C=N/n3cnnc3)o2)cc1	2	-12	-7	-17	i	-16	0	-5
Cc1c(C(=O)N2CCCCC2C)sc2nc3n(c(=O)c12)CCC3 (stereo unspecified)	10	-2	-14	/	i	11	-2	1
Cc1cccc(C)c1OCCn1nc(C(=O)O)c2ccccc2c1=O	4	0	-8	-16	i	/	1	7
COc1ccc(OC)c(NC(=O)COC(=O)c2c3c(nc4ccccc24)CCCC3)c1	-14	-6	54	-12	i	/	6	-8
Cc1cccc(OCC(=O)Nc2ccc(C(=O)NCc3cccnc3)cc2)c1	5	-1	47	/	i	/	/	/
N#Cc1ccccc1NC(=S)NC(=O)C1CCC1	7	6	-9	-15	i	-3	-8	-2
Cc1ccc(-c2noc(CN3CCN(c4ccccc4F)CC3)n2)cc1	-12	-6	-7	-9	i	5	0	5
COCCn1c(C)cc(/C=C2\NC(=S)N(C)C2=O)c1C	2.8*	65	-3	/	/	-23	-9	5	eIF4H FP inh retest=29;PABP polyA inh retest=75*
CCOC(=O)N1CCN(S(=O)(=O)c2ccc(C(=O)NNc3nc4ccc(Cl)cc4s3)cc2)CC1	-1	7	104*	-33	i	/	3	-6
CCCCNC(=S)N(C)/N=C/c1c(C)[nH]c2ccccc12	-4	50*	-10	/	i	10	-3	-1	eIF4H FP inh retest=93*;PABP polyA inh retest=7
CC(=O)NC1CCN(CC(=O)Nc2cccc([N+](=O)[O-])c2)CC1	-5	-11	-11	-7	i	6	1	4
Cc1cc(NC(=O)Nc2ccc(F)c(Cl)c2)no1	-8	-4	-2	-13	i	-68	2	0
COc1ccccc1-n1nnnc1SCc1ccccc1	-2	-1	-17	-9	i	/	2	-4
Oc1ccc(-c2n[nH]c(=S)n2-c2ccc3c(c2)OCCO3)cc1	-6	-9	-12	/	i	-17	0	1
Cc1ccc(N2Cc3ccccc3OC(C)C2=O)cc1 (stereo unspecified)	8	4	-3	-8	i	6	-1	1
O=C(Nc1nc(-c2ccccn2)cs1)c1ccccc1-n1cnnn1	5	15	34	-21	/	13	5	-2
CNC(=O)c1ccc(-c2nc(-c3ccccc3)cs2)cc1	-1	-10	-6	/	i	-24	-1	-1
C(=N\Nc1ncnc2sc3c(c12)CCC3)/c1ccncc1	0	9	2	-28	i	-197	-13	-10
Cc1c(NS(=O)(=O)c2cc(NC(=O)CCN3CCCC(C)C3)ccc2Cl)c(=O)n(-c2ccccc2)n1C (stereo unspecified)	-16	7	-11	2	i	-10	4	5
CCOC(=O)N1CCN(C(=O)CSc2nnc(-c3cc(OC)ccc3OC)o2)CC1	8	3	/	1	/	/	2	4
COc1cccc(N/C(N)=N/c2nc(C)cc(=O)[nH]2)c1	2	-4	-9	-7	i	/	0	-1
Cc1ccc(OCC(=O)Nc2ccc3c(c2)nc(CCN2CCCCC2)n3C)cc1	14	-4	-4	-29	i	-12	2	2
O=C(N/N=C/c1ccc(OC(F)F)cc1OC(F)F)c1cccc(S(=O)(=O)N2CCOCC2)c1	-6	-1	6	/	i	10	4	1
COc1cccc(NS(=O)(=O)c2ccc3c(c2)CC(=O)N3)c1	/	/	-5	-12	/	/	-3	6
Fc1ccccc1CNc1nc(NCC2CC2)nc2ccsc12	/	/	/	-11	/	42	0	-17
O=C(NCCC1CCCCN1S(=O)(=O)c1cccs1)C(=O)NCc1ccccc1 (stereo unspecified)	/	/	22	-19	i	-121	1	-6
COC(=O)[C@]1(CC(C)C)N[C@H](c2ccc(-c3ccc4c(c3)OCO4)cc2)[C@@H]2C(=O)N(C)C(=O)[C@@H]21	/	/	10	2	i	-30	-1	1
NS(=O)(=O)c1cc(C(=O)OCCNC(=O)c2ccccc2)c(Cl)cc1Cl	/	/	-9	-6	i	-14	2	0
O=C(NCc1ccco1)c1ccc(NS(=O)(=O)c2cccc(F)c2)cc1	3	-19	2	-20	i	9	-1	3
COC(=O)N/N=C/c1cn(Cc2ccc(Cl)cc2Cl)c2ccccc12	3	-5	40	-12	i	/	-5	-25
COc1ccc(N2CCOCC2)c(NC(=O)COc2cccc(C)c2C)c1	7	-6	12	-2	i	28	-1	-4
COc1ccc(S(=O)(=O)N2CCOCC2)cc1NC(=O)CN1CCCc2ccccc21	/	/	-20	-14	/	-465	-1	-2
C=CCC[C@@H](Cc1ccc(F)cc1)C(=O)O[C@H](CNC(=O)[C@@H](CC=C)CC(=O)N[C@H](CO)Cc1ccccc1)c1ccccc1	/	/	/	-20	/	-28	-1	-1
O=C(NN1CCOCC1)c1cc(S(=O)(=O)Nc2cccc(C(F)(F)F)c2)ccc1Cl	1	0	/	/	i	0	-3	-3
CC(C)(C)[C@]1(O)CCN2C[C@H]3c4ccccc4CCc4cccc(c43)[C@@H]2C1	5	-5	-4	12	i	33	-4	2
COc1cccc(C(=O)Nc2cc(S(=O)(=O)N3CCCCC3)ccc2OC)c1	-10	2	-10	/	i	16	4	5
Cc1ccc(OC(C)C(=O)O)cc1C (stereo unspecified)	3	3	-6	-14	/	-6	-6	-1
O=C(c1ccc(Br)o1)N(Cc1ccccc1)Cc1ccccc1	-4	-4	13	1	i	2	-4	-6
c1ccc(C2=Nn3c(nnc3-c3cc(-c4ccccc4)n[nH]3)SC2)cc1	-2	-6	20	-21	i	/	6	-9
CC(C)CNC(=O)COC(=O)c1ccccc1OCC(=O)Nc1ccc(Br)cc1	-8	-13	0	-15	i	-7	-2	-1
O=C(CSc1nnc(COc2ccccc2)n1Cc1ccco1)c1ccc(F)cc1	10	6	-13	-6	i	-63	-1	0
Further results follow:
SMILES	PABP polyA inh	eIF4H FP inh	CSC inhib	Yeast UUG start	Rce1 inhib	Env fusion inh	MT1-MMP act inh	MT1-MMP act inh RFP	others
COc1ccc(S(=O)(=O)NC2CC(C)(C)NC(C)(C)C2)cc1	3	5	-3	-28	i	7	1	2
COCC(=O)NCc1ccc2c(c1)cc(C)n2C	4	28	-8	/	/	-5	10	10
COc1ccc(NC(=O)C(C)N2CCN(C)CC2)cc1 (stereo unspecified)	8	6	-14	4	i	18	2	6
CCOC(=O)C1=C(C)NC2=C(C1c1ccc([N+](=O)[O-])cc1)S(=O)(=O)c1ccccc12 (stereo unspecified)	2	-12	19	-6	i	-68	-2	-6
Cc1ccc(OCC(=O)c2c(O)c3ccccc3oc2=O)cc1C	0	-8	-6	-7	i	/	2	5
COc1cc2c(cc1OC)C(c1cccc(Cl)c1)CC(=O)N2 (stereo unspecified)	-4	2	-7	8	i	13	0	2
COC(=O)Cn1c2ccc(OC)cc2c2nc(C)sc21	3	-2	4	-4	i	1	4	4
CCSc1nnc(NS(=O)(=O)c2ccc(C)cc2)s1	2	3	-13	-9	i	-11	0	0
O=C(CNS(=O)(=O)c1cccs1)Nc1ccc2c(c1)OCCO2	-1	-10	-14	-3	i	-37	-1	3
O=C(c1cnn(C(=O)c2cccc(S(=O)(=O)N3CCOCC3)c2)c1)c1cc(Cl)cc(Cl)c1O	-1	-4	6	/	i	/	/	/
CCCS(=O)(=O)NC(=O)C1(C)CCN(C(=O)c2oc3ccccc3c2C)C1 (stereo unspecified)	/	/	/	-24	/	14	1	7
N#Cc1ccc(C(=O)NCCCSc2ccccc2)cc1	5	-9	7	-12	i	-4	3	5
O=S(=O)(c1ccc2c(c1)OCCO2)N1CCN(c2ncnc3sccc23)CC1	19	15	23	-7	i	39	-3	-26
COc1ccc(C(=O)N2CCSC2=S)cc1OC	8	-10	6	-14	i	/	-2	3
O=C(CSc1nc(-c2ccco2)cc(C(F)(F)F)n1)NCCCN1CCOCC1	-4	-9	-2	/	i	18	1	3
CSc1nsc(SCC(=O)Nc2ccc(C(C)=O)cc2)n1	-1	0	-4	-9	i	-83	6	6
Cc1cc(C)c(NC(=O)C2CCCN2CCO)c(C)c1 (stereo unspecified)	-8	-3	-3	-9	i	-49	2	-2
Cc1ccccc1CSCCNC(=O)c1ccc(Cl)c(S(=O)(=O)N2CCOCC2)c1	8	4	-9	-8	i	/	-6	-12
CCC(C)Oc1nc2c(c(=O)n(C)c(=O)n2C)n1C (stereo unspecified)	7	-1	-10	-9	i	-9	0	-1

Molecules shown so far that have a cyano group:
SMILES	PABP polyA inh	eIF4H FP inh	CSC inhib	Yeast UUG start	Rce1 inhib	Env fusion inh	MT1-MMP act inh	MT1-MMP act inh RFP	others
N#Cc1ccccc1NC(=S)NC(=O)C1CCC1	7	6	-9	-15	i	-3	-8	-2
N#Cc1ccc(C(=O)NCCCSc2ccccc2)cc1	5	-9	7	-12	i	-4	3	5

Screening data (PubChem BioAssay)
